RanGTP-Imp inh – disruptors of Ran-importin-beta complex formation – biochemical, FRET, CFP-Ran, YFP-importin-beta, homogeneous, primary screen; cell-free CFP-Ran/YFP-importin-beta FRET ratio; inhibition, % (test concentration not listed); 1.1% of 300,000 active;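 active means most replicates above 15%; inconclusive means exactly half above 15%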;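 further: 0% = DMSO wells and 100% = Ran loaded with GDP instead of GTP; wells of about 40 µL received 100 nL stock; the first replicate is given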
UCH37 DUB inh – inhibitors of human deubiquitinating enzyme UCH37 | Q9Y5K5 | purified proteasome/UCH37, Ub-AMC cleavage fluorescence | inhibition, % (concentration not given with the values) | 0.33% of 330,000 active;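 active means mean of two replicates above 20%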;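 further: 0% = compound-free wells with enzyme and 100% = wells lacking proteasome; stock transfer was 100 nL into about 20 µL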
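Material: Human UCH37 enzyme supplied as purified proteasome complex | Schedule: 30 min compound-proteasome preincubation then 25 min substrate reaction, room temperature | Detection: AMC fluorescence from Ub-AMC cleavage, excitation 355 nm, emission 460 nm | Benchmarks: Wells without proteasome as full block, compound-free enzyme plus substrate as uninhibited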
Beta2AR agonist – activates human beta-2 adrenergic receptor causing internalization. response, % (no concentration beside the values). Am2.2-beta2AR cells, FAP receptor internalization, flow cytometry; reference of the scale not given here. P07550. 0.43% of 340,000 active;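 active means response above a set limit, near 3 SD of response in nonfluorescent compounds, cut at about 42% in these data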;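 further: stock transfer was 100 nL into about 11 µL; a reference agonist was the positive control; negative values mostly stem from fluorescent compounds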
Beta apoptosis – beta cell apoptosis inhibition. INS-1E cytokine-induced death, ATP luminescence, 48 h; percent of positive-control rescue, neutral wells zero. protection from apoptosis, % (concentration not given with the values). 0.8% of 300,000 active. AID 435005;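 active means all replicates at 75% or more, or half of them and the mean; inconclusive means half reach 75% but not the mean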;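 further: 0% = cytokine-treated negative control wells and 100% = positive control rescue; higher means more ATP so stronger rescue from cytokine killing; wells of about 40 µL received 100 nL stock; the first replicate is given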
LANA-H2B inh – blocks KSHV LANA binding to histone H2A/H2B; Q9QR71; cell-free LANA-H2A/H2B peptide, fluorescence polarization; inhibition, % (concentration not given with the values); 0.6% of 320,000 active; AID 2629; in the data active means inhibition mostly above about 10%, no sharp cut-off; inactive means mostly below about 6.7%;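 further: stock transfer was 7.5 nL into about 10 µL; 0% = median of vehicle wells and 100% = median of positive control wells; one replicate is shown; the record names a cut of 25% in any replicate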
Target sequence (Q9QR71 whole entry, looked up): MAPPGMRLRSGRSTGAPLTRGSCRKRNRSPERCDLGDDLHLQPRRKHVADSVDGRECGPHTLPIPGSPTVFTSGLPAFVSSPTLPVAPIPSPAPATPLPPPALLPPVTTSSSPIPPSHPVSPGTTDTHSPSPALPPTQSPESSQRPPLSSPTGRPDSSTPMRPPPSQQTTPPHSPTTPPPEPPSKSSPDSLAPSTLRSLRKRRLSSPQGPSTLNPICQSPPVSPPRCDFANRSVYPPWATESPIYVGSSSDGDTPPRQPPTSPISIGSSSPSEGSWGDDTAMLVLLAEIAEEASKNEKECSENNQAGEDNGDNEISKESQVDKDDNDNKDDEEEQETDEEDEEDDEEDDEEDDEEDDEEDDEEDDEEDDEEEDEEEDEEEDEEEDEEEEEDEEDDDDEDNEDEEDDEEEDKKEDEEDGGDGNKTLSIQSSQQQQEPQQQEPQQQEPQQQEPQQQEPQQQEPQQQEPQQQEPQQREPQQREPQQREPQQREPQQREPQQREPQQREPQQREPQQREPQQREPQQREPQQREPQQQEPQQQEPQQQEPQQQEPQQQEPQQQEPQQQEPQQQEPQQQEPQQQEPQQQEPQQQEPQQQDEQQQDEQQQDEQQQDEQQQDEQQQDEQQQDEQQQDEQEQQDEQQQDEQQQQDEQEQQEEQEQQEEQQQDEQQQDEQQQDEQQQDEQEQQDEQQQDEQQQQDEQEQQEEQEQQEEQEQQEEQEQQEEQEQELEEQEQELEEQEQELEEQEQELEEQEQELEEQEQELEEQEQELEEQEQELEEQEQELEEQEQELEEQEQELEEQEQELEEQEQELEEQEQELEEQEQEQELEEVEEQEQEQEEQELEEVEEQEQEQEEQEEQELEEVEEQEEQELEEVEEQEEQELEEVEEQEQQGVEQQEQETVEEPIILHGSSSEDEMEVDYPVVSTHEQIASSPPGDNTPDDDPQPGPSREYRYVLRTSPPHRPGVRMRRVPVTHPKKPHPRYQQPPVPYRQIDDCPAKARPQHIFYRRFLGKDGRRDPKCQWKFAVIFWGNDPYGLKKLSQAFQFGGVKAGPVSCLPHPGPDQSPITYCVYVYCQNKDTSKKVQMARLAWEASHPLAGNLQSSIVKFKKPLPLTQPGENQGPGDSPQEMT
Calb FLC – C. albicans growth modulation with fluconazole; growth inhibition, % (no concentration beside the values); C. albicans CaCi-2 (fluconazole-resistant clinical isolate) + fluconazole, Alamar Blue growth, 48 h; 0.57% of 300,000 active; AID 1979;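 active means most replicates above 75%; inconclusive means exactly half above 75%; inactive means most below 75%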;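 further: all wells also contain fluconazole at 8 µg/ml as a sub-toxic cotreatment; 0% = median of DMSO wells and 100% = median of geldanamycin control wells; wells of about 8 µL received 7.5 nL stock; the first replicate is given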
T cruzi inh – T. cruzi replication inhibition; T. cruzi beta-gal in NIH3T3, luminescence, 90 h; 1.4% of 300,000 active; AID 1885; inhibition, % (no concentration beside the values);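 active means mean inhibition across valid replicates above about 55%, limit read from the data; inconclusive means mean below that limit but half or more replicates reach it; inactive means mean below it, under half of replicates reach it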;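 further: signal also drops with host cell toxicity which is not excluded here; 0% = plate median of DMSO wells and 100% = zero luminescence signal; higher percent means less beta-gal luminescence so fewer parasites; stock transfer was 50 nL into about 50 µL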
Bfl-1 A1 inh – inhibitors of the anti-apoptotic protein A1, read as caspase activation. MEF A1-2A-BIM cells, Caspase-Glo 3/7 luminescence, 3 h; percent of clofoctol response, vehicle zero. caspase activation, % (concentration not given with the values). 0.066% of 330,000 active;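 active means over half of replicate activation scores above 10%, or exactly half above 10 with the replicate mean above 10; inconclusive means replicate mean below 10 yet half the replicates above 10; inactive means over half of replicates below 10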;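 further: wells of about 30 µL received 50 nL stock; many hits fall short of the cut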
Starred values were filed as active, the others as inactive; ? = inconclusive; nt = no result given; + = active, no number.

SMILES	RanGTP-Imp inh	UCH37 DUB inh	Beta2AR agonist	Beta apoptosis	LANA-H2B inh	Calb FLC	T cruzi inh	Bfl-1 A1 inh
O=C(NCCCN1CCOCC1)c1c(O)c2ccccc2[nH]c1=O	4.3	2.9	0	-1	-3.7	-4	10	0.4
Cc1ccccc1C(=O)N1CCC(C(=O)OCc2nc(N)nc(Nc3ccccc3)n2)CC1	nt	1.3	-3	-1	2.2	nt	nt	0.4
CCOC(=O)c1ccc(NC(=O)c2nc[nH]c2C(=O)N2CCN(C(=O)OC(C)(C)C)CC2)cc1	?	3.7	nt	nt	nt	-13	15	nt
CC(=O)Nc1ccc(S(=O)(=O)N(C)CC(=O)NC2CCCCCCC2)cc1	nt	-2.0	6	-6	-1.3	nt	nt	0.4
CCSc1nnc(Cc2cc(=O)[nH]c(=O)[nH]2)n1-c1cc(C)ccc1C	-1.4	1.1	3	-1	7.6	-7	-8	0.2
CC(C(=O)Nc1ccc(Cl)cc1)N1C(=O)NC2(CCCC2)C1=O (stereo not given)	-1.0	1.3	-3	0	0.2	-9	-3	-1.3
CC(C)S(=O)(=O)c1cnc(-c2ccccn2)nc1N	3.7	0.7	1	-7	1.3	50	-16	-1.8
COc1ccc(OC)c(NC(=O)c2nnn(CC(=O)Nc3ccc4c(c3)OCO4)c2N)c1	7.1	-6.4	15	-2	1.3	29	10	0.7
CCN1C(=O)/C(=C\c2cn(CCC#N)nc2-c2ccc(F)cc2)SC1=S	2.2	6.4	-14	8	0.5	-15	26	3.2
CCCCc1c(O)nc(N2CCN(Cc3ccccc3)CC2)[nH]c1=O	-1.3	1.1	3	-9	-0.4	-6	6	-0.3
CCC(C)[C@H](NC(=O)C1CC(=O)N(c2ccc(OC)cc2)C1)C(=O)N1CCCCC1 (stereo not given in full)	-2.2	6.8	-5	-4	5.8	2	-15	0.5
C=CCN(c1ccccc1OC)S(=O)(=O)c1ccc(Cl)c(C(=O)Nc2ccc(N3CCOCC3)cc2)c1	-2.5	4.8	-4	9	-5.7	-5	24	1.1
O=C(NCC1CCCO1)C1CCCN(S(=O)(=O)c2ccc(F)cc2)C1 (stereo not given)	5.3	0.0	2	4	3.2	6	27	0.2
O=C(Oc1ccc(=O)n(-c2ccccc2)n1)c1cccc(Cl)c1	-1.4	3.1	7	3	3.5	7	19	0.6
O=C(NCc1ccc(F)cc1)C1CCCN1C(=O)Nc1ccc(Cl)cc1 (stereo not given)	1.6	5.4	-1	-5	-1.4	-1	1	-0.4
Cc1cccc2cc(CN(CC3CCCO3)S(=O)(=O)c3ccccc3)c(=O)[nH]c12 (stereo not given)	1.3	-7.5	4	3	1.6	-1	22	0.0
COc1cccc(NCc2nnc(SCC(=O)NC3CCS(=O)(=O)C3)n2C2CCCCC2)c1 (stereo not given)	6.8	2.4	-2	1	1.8	8	-8	-0.4
Cc1cc(NC(=O)CSc2nnc(NCc3ccccc3)s2)no1	-1.8	2.9	-2	0	0.5	-15	-8	-1.2
CCN(CC)C(=O)CN(C#N)c1nc(C)cc(C)n1	-1.2	-2.0	3	-6	-0.4	-25	-8	0.9
NS(=O)(=O)c1ccc(CCNC(=O)c2ccc3ccccc3n2)cc1	3.1	-2.3	-8	-1	-1.7	-5	4	0.2
CCOc1ccc2nc(-c3ccccc3)nc(SCC(=O)Nc3ncc(C)s3)c2c1	2.7	-70	-4	-6	-3.9	20	8	0.2
O=C(C[n+]1cccc(/C=N/O)c1)N(Cc1ccccc1)Cc1ccccc1	5.9	nt	-3	0	-1.7	-2	-22	0.1
CCc1ccc2c(c1)cc(C)c1nnc(SCC(=O)Nc3cc(OC)c(OC)cc3C(=O)O)n12	1.5	2.3	-2	-3	-6.9	-3	1	0.7
Cc1cccc(NC(=O)CN2C(=O)S/C(=C\c3cc(C)n(C)c3C)C2=O)c1	-1.0	-24	3	7	-0.8	-42	-3	0.0
N#Cc1ccc(CSc2nnc(NC(=O)C3CCCO3)s2)cc1 (stereo not given)	4.8	4.7	8	-1	-2.1	11	3	0.5
CCOc1cc(/C=C(/C#N)c2nc3ccccc3[nH]2)ccc1OCc1ccc(C(=O)O)o1	0.0	nt	-3	0	-5.0	7	-12	0.0
CC(=O)Nc1ccc(NC(=O)Cn2cnc3c(cnn3C(C)(C)C)c2=O)cc1	9.7	2.1	nt	-1	1.7	3	-13	-0.2
O=c1[nH]c(/C=C\c2cccc(F)c2)nc(O)c1[N+](=O)[O-]	?	14	-7	-3	1.4	4	0	0.2
COc1cc(OC)cc(C(=O)NC(=S)N2CCCCC2c2cccnc2)c1 (stereo not given)	2.2	4.5	-1	4	-0.1	4	62*	-0.5
N#C/C(=C\c1cccc2ccccc12)c1nn(-c2ccccc2)c(N)c1C#N	-1.4	-6.7	nt	36	1.1	2	39	-0.5
Cc1ccc(NC(=O)CNc2cccc(S(=O)(=O)N3CCCCC3)c2)cc1F	0.0	2.9	3	-1	-1.4	3	13	0.3
O=C(Cc1ccccc1)NNC1CC(=O)N(c2ccccc2)C1=O (stereo not given)	-3.1	-1.6	-17	-1	4.4	4	-3	-0.1
Cc1oc2c(c1C(=O)NCCO)CCCC2	-2.6	4.6	-6	-14	11	2	-10	0.7
Clc1ccc(-c2cc(C3CCNCC3)[nH]n2)c(Cl)c1	5.3	2.6	18	-4	5.7	3	65*	2.0
Cc1oc(-c2ccccc2F)nc1CSCC(=O)NC1CCC(C)CC1 (stereo not given)	-1.4	-0.4	-4	4	-2.7	0	14	0.2
Cc1cc(C)c(C(=O)O)c(Cl)n1	4.3	1.9	-4	-1	-4.4	10	-3	0.8
COc1ccc(N(C)S(=O)(=O)c2cccc(C(=O)Nc3cc(OC)ccc3OC)c2)cc1	-3.0	1.9	10	nt	3.3	1	30	0.9
COc1cc(NS(C)(=O)=O)cc(OC)c1OC	2.6	0.7	-4	-2	0.7	-4	-7	-0.3
COc1cccc(OCc2cc(/C=N/n3cncn3)ccc2OC)c1	1.9	nt	-1	-1	-6.4	8	-12	-0.2
CCN1CCN(CCCNC(=O)CN2C(=O)c3cccnc3Oc3ccc(Cl)cc32)CC1	-2.0	3.2	4	-2	2.8	-1	-6	-0.1
C=CCN1C(=O)CSc2ccc(C(=O)NC(C)c3ccccc3)cc21 (stereo not given)	-2.3	3.0	7	-1	-4.5	12	-2	-0.4
COC(=O)c1ccc(NC(=O)C(C)N2C(=O)c3ccccc3C2=O)cc1 (stereo not given)	-1.9	5.2	1	-4	5.5	1	-18	1.0
C/C(=N\NC(=O)CCc1c(C)n[nH]c1C)c1ccc([N+](=O)[O-])cc1	1.8	nt	-3	-4	-2.1	5	2	0.6
CC(=O)Oc1ccc(C(=O)c2ccccc2)c(OC(C)=O)c1	-3.6	6.5	6	-1	-0.6	1	-7	-0.4
CC(C)Oc1ccc2nnnn2n1	-3.2	1.7	-5	-3	0.0	2	-10	0.0
CCn1cnc2c1c(=O)n(CC(=O)N1CCc3ccccc31)c(=O)n2Cc1ccccc1	-2.2	0.8	-13	2	-2.6	32	16	1.1
CCCCN1CC(=O)N2[C@H]3c4cc(Cl)ccc4OC[C@@H]3[C@H](C(=O)OCC)[C@]2(C)C1=O	nt	0.0	-5	6	-2.3	nt	nt	1.0
C=CCNC(=O)/C(C#N)=C/c1c(N(Cc2ccccc2)Cc2ccccc2)nc2ccccn2c1=O	3.7	0.0	7	26	3.2	-2	37	0.0
Cc1ccc(S(=O)(=O)N2CCCOC2CNC(=O)C(=O)NCc2ccccc2C)cc1 (stereo not given)	5.0	1.6	-20	4	-4.7	-3	-5	-0.3
O=C1CCCc2c1nc(-c1ccco1)n2O	24	-61	-1	-6	-3.7	-5	-3	0.8
CSCC(O)Cn1ncc2ccccc2c1=O (stereo not given)	-1.7	2.6	-4	-3	5.5	4	-2	0.8
Cc1ccc(S(=O)(=O)NNC(=O)c2sc(=S)n(C)c2C)cc1	3.9	6.2	nt	-5	5.6	-28	-7	0.2
NS(=O)(=O)c1ccc(NC(=O)/C=C/c2cn(-c3ccccc3)nc2-c2cccc(Cl)c2)cc1	4.1	-450	-2	5	0.6	-7	7	-0.9
Cc1ccc(C(=O)COC(=O)CNC(=O)C(c2ccccc2)c2ccccc2)cc1[N+](=O)[O-]	0.8	-0.2	-6	-5	-1.3	-4	-8	-1.0
c1ccc(Oc2ncnc3oc(-c4ccccc4)cc23)cc1	4.5	-1.5	1	4	-2.2	6	-2	-0.4
Cc1nc2cc(S(=O)(=O)N3CCC(C(=O)O)CC3)ccc2n1C1CCCC1	-0.2	-0.6	-9	-5	2.4	3	-12	0.2
Cc1cccc(OCCCCNCc2ccccc2)c1	-2.8	2.3	1	-1	-1.5	-56	22	0.3
O=C(Nc1cccc(NC(=O)c2ccc(Br)o2)c1)c1ccccc1	1.7	2.3	12	nt	nt	32	5	nt
Cc1cccc(N=Cc2c(O)cc(C)oc2=O)c1	-3.6	4.7	1	nt	-16	3	-1	0.5
O=C(O)c1cccc(-c2noc(-c3cccc(Cl)c3)n2)c1	nt	1.4	-2	-2	1.9	nt	nt	-0.3
(continued)
SMILES	RanGTP-Imp inh	UCH37 DUB inh	Beta2AR agonist	Beta apoptosis	LANA-H2B inh	Calb FLC	T cruzi inh	Bfl-1 A1 inh
O=C(CSc1nnc(-c2ccncc2)o1)Nc1cccc(F)c1	?	1.3	-2	0	-7.8	-21	-10	-0.6
Cc1cccn2cc(CCNC(=O)c3ccco3)nc12	3.1	2.3	-7	-6	-3.6	-3	3	0.0
CC(C)(C)c1ccc(Oc2ccc(NC(=O)CCCC(=O)O)cn2)cc1	-1.6	-0.2	6	-2	-1.1	-2	-7	-0.7
CC[C@]1(c2cccc(C)c2)C(=O)N(C(=O)OC)N1C(=O)OC	3.3	35*	8	-11	-1.6	-1	5	0.0
Cc1ccccc1S(=O)(=O)N(CC(O)CN1C(=O)NC(C)(C)C1=O)c1ccccc1 (stereo not given)	-1.7	0.8	6	-3	3.4	-9	-1	-0.1
CCN1CCN(CC(=O)Nc2sc3c(c2C#N)CCC(C)C3)CC1 (stereo not given)	-2.9	4.5	8	-4	0.2	-21	28	1.0
N#Cc1cccc(S(=O)(=O)NCC(=O)NCCCc2ccccc2)c1	2.7	3.2	-2	-5	-3.2	-3	-3	0.7
COC(=O)c1ccccc1NC(=O)Cn1c(=O)n(Cc2ccccc2)c(=O)c2c(C)c(C)sc21	-1.7	2.2	-1	2	-1.7	-3	18	0.3
COc1cc2[nH]c3c(=O)n(N)c(=O)[nH]c3c2cc1OC	1.6	-45	-11	4	-4.5	5	-8	0.0
COc1ccccc1NC(=O)COC(=O)c1[nH]c(=O)[nH]c(=O)c1N	nt	-19	-4	-3	2.4	nt	nt	-0.5
Cc1c(C(=O)N2c3ccccc3Sc3ccccc32)cccc1[N+](=O)[O-]	1.3	4.2	5	-7	nt	9	13	1.1
Nc1ccc(Oc2ccc(F)cc2)nc1	-0.5	nt	-45	8	0.0	-2	9	0.7
CCCCN1C(=O)C(=O)c2cc(Cl)ccc21	nt	-12	4	5	+	nt	nt	0.6
CC1SCC(=NOCc2c(Cl)cccc2Cl)CS1 (stereo not given)	3.4	4.9	8	-2	1.0	-1	22	-0.6
